SMARCA2 activ: SMARCA2 (BRM) function activators, primary screen, cell-based, luminescence, high throughput; MG213 cells, MMTV-luciferase reporter, dexamethasone, overnight; activation, % at 9.1 µM; actives 1% (n = 370,000); in the data active = activation above about 7.8%;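 note: 0% = vehicle wells and 100% = reference activator wells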
PLC-beta3 inh: human PLC-beta3 inhibitors, primary screen, biochemical, fluorescence | 1-phosphatidylinositol 4,5-bisphosphate phosphodiesterase beta-3 (Homo sapiens), Q01970 | Purified PLC-beta3, fluorogenic substrate | inhibition, % at 12.2 µM | actives 0.18% (n = 370,000) | AID 720704, 2013; in the data active = inhibition above about 11%;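 note: 0% = median of compound wells on plate and 100% = full blocker control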
MBD2 inh: inhibitors of MBD2 binding to methylated DNA, primary screen, biochemical, TR-FRET, DNA-binding domain, human; Methyl-CpG-binding domain protein 2 (Homo sapiens), Q9UBB5; MBD2 binding to methylated oligonucleotide; inhibition, % at 4.4 µM; actives 0.31% (n = 370,000); AID 686964, 2013; in the data active = inhibition above about 13%
Target sequence (Q9UBB5 whole entry, looked up, the tested form may be a part): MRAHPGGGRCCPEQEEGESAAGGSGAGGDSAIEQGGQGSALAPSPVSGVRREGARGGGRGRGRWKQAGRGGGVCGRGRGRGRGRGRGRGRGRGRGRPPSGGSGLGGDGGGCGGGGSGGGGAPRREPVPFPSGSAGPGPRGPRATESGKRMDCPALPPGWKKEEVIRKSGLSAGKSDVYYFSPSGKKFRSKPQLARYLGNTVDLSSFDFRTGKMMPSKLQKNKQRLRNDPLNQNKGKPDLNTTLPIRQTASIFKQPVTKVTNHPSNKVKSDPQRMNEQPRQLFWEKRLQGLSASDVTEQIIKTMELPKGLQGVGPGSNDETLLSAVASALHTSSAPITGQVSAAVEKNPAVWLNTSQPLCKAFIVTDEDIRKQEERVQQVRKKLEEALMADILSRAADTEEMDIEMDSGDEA
ADAM17 inh: ADAM17 inhibitors, primary screen, biochemical, QFRET; actives 0.83% (n = 370,000); Disintegrin and metalloproteinase domain-containing protein 17 (Homo sapiens), P78536; recombinant ADAM17, EDANS/DABCYL FRET peptide cleavage; inhibition, % at 6.95 µM;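 active = inhibition above the mean of compounds lying between control limits plus 3 SD, set per campaign, cut at about 8.5% in these data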;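 note: 0% = DMSO-only wells as the low control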
PLC-gamma1 inh: PLC-gamma1 enzyme inhibitors, primary screen, biochemical, fluorescence, purified enzyme; 1-phosphatidylinositol 4,5-bisphosphate phosphodiesterase gamma-1 (Homo sapiens), P19174; fluorogenic substrate; inhibition, % at 12.2 µM; actives 0.84% (n = 370,000); AID 720700, 2013; in the data active = inhibition above about 9.5%
Numbers without * were called inactive; i = inactive; & = joins results of further samples.

| No. | compound | PLC-beta3 inh | ADAM17 inh | SMARCA2 activ | PLC-gamma1 inh | MBD2 inh |
| --- | --- | --- | --- | --- | --- | --- |
| 1 | Cc1ccc(OC(=O)COc2ccccc2)c(-n2nc3ccccc3n2)c1 | -1.8 | -4.2 | 1.7 | 2.5 | 8.3 |
| 2 | Cc1ccn2cc(-c3cccc([N+](=O)[O-])c3)nc2c1 | 0.6 | -7.0 | 3.0 | 0.5 | 3.6 |
| 3 | CSc1ccc(C(=O)c2[nH]c(=O)[nH]c2C)cc1 | 6.3 | -1.3 | -0.1 | 1.8 | -2.1 |
| 4 | O=C(Nc1ccc2ccccc2c1)c1ccc(Br)o1 | -21.1 | 1.0 | 1.9 | -7.1 | -4.5 |
| 5 | COc1ccccc1NC(=O)C(=O)Nc1ccccn1 | -0.6 | -3.8 | 2.8 | -2.3 | 2.2 |
| 6 | COc1ccc2cc(-c3ccsc3)ncc2c1 | -16.7 | -18.1 | 6.0 | -12.4 | -5.1 |
| 7 | Cc1nn2cc(-c3ccc(Cl)cc3)nc2s1 | 5.5 | -0.2 | 8.7* | 3.7 | -0.9 |
| 8 | CN(C)CCOC(c1ccccc1)c1ccccc1 (tested in a mixture with another compound) | -1.5 | -5.4 | -3.6 | -0.5 | 3.5 |
| 9 | O=C(NC(=S)Nc1ccccn1)c1ccccc1 | 0.5 | -2.7 | 3.0 | 4.4 | 2.8 |
| 10 | COc1ccc(NC(=O)Nc2ccccc2F)cc1Cl | -51.5 | 4.0 | 4.6 | 2.9 | 0.5 |
| 11 | COc1ccc(-c2cc3ccc(F)cc3cn2)cc1 | -64.7 | -25.5 | 5.8 | -48.4 | -3.5 |
| 12 | CCN1CCN(C(=O)c2ccc(NS(=O)(=O)c3ccccc3)cc2)CC1 | -0.2 | -4.9 | 0.3 | 1.5 | -1.7 |
| 13 | O=C(O)c1cc(S(=O)(=O)N2CC=C(c3ccccc3)CC2)ccc1O | -12.6 | -3.8 | -1.9 | -5.4 | 1.8 |
| 14 | OCCN(CCO)c1nc(N2CCCCC2)c2nc(N(CCO)CCO)nc(N3CCCCC3)c2n1 | i | -52.0 | 3.5 | -430.5 | -2.7 |
| 15 | CCOC(=O)c1ccccc1N/C=C/C(=O)c1cccs1 | -26.0 | -1.6 | 1.8 | -13.7 | 1.1 |
| 16 | COC(=O)C1=C(C)NC(C)=C(C(=O)OC)C1c1ccccc1[N+](=O)[O-] | -41.8 | -5.2 | -6.2 | -35.3 | -5.1 |
| 17 | NC(=O)c1csc(C2OC(CO)C(O)C2O)n1 (stereo not drawn) | 1.2 | -1.6 | -1.3 | -2.7 | -4.0 |
| 18 | CC(C)OC(=O)C(C)(C)Oc1ccc(C(=O)c2ccc(Cl)cc2)cc1 | 2.4 | -1.0 | -3.8 | -1.0 | -3.8 |
| 19 | CN(C)c1ccnc2sc(C(N)=O)c(N)c12 | -70.4 | -18.5 | -4.6 | -51.6 | -2.8 |
| 20 | COc1ccccc1-c1nc(-c2cccc(C)c2)no1 | 0.2 | 2.4 | 6.5 | 6.2 | 4.2 |

6 records picked at random from those above:
| No. | compound | PLC-beta3 inh | ADAM17 inh | SMARCA2 activ | PLC-gamma1 inh | MBD2 inh |
| --- | --- | --- | --- | --- | --- | --- |
| 7 | Cc1nn2cc(-c3ccc(Cl)cc3)nc2s1 | 5.5 | -0.2 | 8.7* | 3.7 | -0.9 |
| 4 | O=C(Nc1ccc2ccccc2c1)c1ccc(Br)o1 | -21.1 | 1.0 | 1.9 | -7.1 | -4.5 |
| 12 | CCN1CCN(C(=O)c2ccc(NS(=O)(=O)c3ccccc3)cc2)CC1 | -0.2 | -4.9 | 0.3 | 1.5 | -1.7 |
| 3 | CSc1ccc(C(=O)c2[nH]c(=O)[nH]c2C)cc1 | 6.3 | -1.3 | -0.1 | 1.8 | -2.1 |
| 6 | COc1ccc2cc(-c3ccsc3)ncc2c1 | -16.7 | -18.1 | 6.0 | -12.4 | -5.1 |
| 5 | COc1ccccc1NC(=O)C(=O)Nc1ccccn1 | -0.6 | -3.8 | 2.8 | -2.3 | 2.2 |

Additional results follow.
| No. | compound | PLC-beta3 inh | ADAM17 inh | SMARCA2 activ | PLC-gamma1 inh | MBD2 inh |
| --- | --- | --- | --- | --- | --- | --- |
| 21 | Cc1csc(NC(=O)Nc2ccccc2[N+](=O)[O-])n1 | 3.5 | -0.4 | 2.7 | 2.1 | -4.3 |
| 22 | CCCOc1ccc(-c2cn3ccccc3n2)cc1 | -44.0 | -113.0 | 8.2* | -27.6 | 0.4 |
| 23 | COc1ccc(-c2cc3ccccc3cn2)cc1 | -65.5 | -18.2 | 4.8 | -48.9 | 2.1 |
| 24 | N#Cc1c(-c2ccc(Cl)cc2)c(-c2ccc(Cl)cc2)nn(CCO)c1=O | -114.0 | -39.6 | -0.8 | -94.9 | 1.0 |
| 25 | NCC(O)c1ccc(O)c(O)c1 (stereo not drawn) | 1.7 | 0.2 | 1.4 | 4.0 | 0.7 |
| 26 | CCn1cc(C(=O)O)c(=O)c2ccc(C)nc21 | 3.3 | -3.3 | -6.7 | 10.3* | 8.6 |
| 27 | O=C(c1ccccc1)c1ccccc1 | 10.7* | 4.3 | -0.5 | 9.5 | -3.4 |
| 28 | O=C(Nc1ccccc1F)C(=O)Nc1cccc2ccccc12 | 10.3 | 2.2 | 0.7 | 6.7 | -3.4 |
| 29 | C=C(CN(C)C)C(=O)c1cc(OC)c(OC)cc1OC | -4.7 | 3.0 | 15.7* | -5.1 | 3.9 |
| 30 | COc1ccc(-c2noc(-c3ccccc3F)n2)cc1 | 5.8 | -2.9 | 1.6 | 6.8 | 0.9 |
| 31 | CN1[C@@H]2CC(OC(=O)[C@H](CO)c3ccccc3)C[C@H]1[C@@H]1O[C@@H]12 (stereo partly drawn) | -6.7&-0.5&0.0&-0.7 | -6.8&-9.2&-3.6&-4.5 | -2.2&-4.4&-1.4&-1.4 | -1.7&0.0&-1.6&-2.3 | 1.0&5.2&0.6&3.0 |
| 32 | CC(C)(C)c1ccc(C(O)CCCN2CCC(C(O)(c3ccccc3)c3ccccc3)CC2)cc1 (stereo not drawn) | 1.9 | -0.6 | -0.1 | 0.5 | -4.1 |
| 33 | C[N+]1(C)CC[C@H](OC(=O)[C@@](O)(c2ccccc2)C2CCCC2)C1 | 3.0 | -1.3 | -0.7 | 1.1 | -2.9 |
| 34 | CCC(C)(C)C(=O)O[C@H]1C[C@@H](C)C=C2C=C[C@H](C)[C@H](CC[C@@H]3C[C@@H](O)CC(=O)O3)[C@H]21 | -0.8 | -3.1 | 2.7 | -3.0 | -3.2 |

Along the list, as entered above:
SMARCA2 activ for entries 24 to 33 → -0.8, 1.4, -6.7, -0.5, 0.7, 15.7*, 1.6, -2.2&-4.4&-1.4&-1.4, -0.1, -0.7
MBD2 inh for entries 24 to 33 → 1.0, 0.7, 8.6, -3.4, -3.4, 3.9, 0.9, 1.0&5.2&0.6&3.0, -4.1, -2.9

Looked up above:
Under SMARCA2 activ, compound 22 reads 8.2*
Under PLC-gamma1 inh, compound 26 reads 10.3*

Filtered by structure, the entries above containing a COOH group
| No. | compound | PLC-beta3 inh | ADAM17 inh | SMARCA2 activ | PLC-gamma1 inh | MBD2 inh |
| --- | --- | --- | --- | --- | --- | --- |
| 13 | O=C(O)c1cc(S(=O)(=O)N2CC=C(c3ccccc3)CC2)ccc1O | -12.6 | -3.8 | -1.9 | -5.4 | 1.8 |
| 26 | CCn1cc(C(=O)O)c(=O)c2ccc(C)nc21 | 3.3 | -3.3 | -6.7 | 10.3* | 8.6 |

Source: PubChem BioAssay (The Scripps Research Institute Molecular Screening Center)

An excerpt; the hit share may differ from the screen's.
